PINK1 modulator = PINK1 expression modulation; PINK1 immunofluorescence, high-content cytometry, 24 h; 0.2% of 410,000 active; Potency, µM (series often up to 76.6 µM), for the others: top-dose activation (PINK1 increase), hits mostly activators; active = well fitted activation curve with a large enough effect; inconclusive = small, poorly fitted or top-dose-only effect; inactive = flat fitted curve, though single readings scatter; cell line not stated here;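 further: potency means the concentration at half of the fitted maximal effect; % of control where 0% means no effect; nearly all actives have a fitted effect of over 65% in size; a mitochondrial uncoupler was the plate control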
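Stable cell line treated 24 h with compounds at 5 concentrations (CCCP controls), then fixed and immunostained for PINK1 plus nuclear and cell stains; PINK1 immunofluorescence quantified by laser-scanning microplate cytometry.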
Sfp inh = Sfp phosphopantetheinyl transferase inhibition; Q9F4F7; Biochemical Sfp PPTase activity, qHTS; Potency, µM, inactives show max response, negative = inhibition, actives largely listed as inhibitors; 3.5% of 310,000 active; active means well fitted inhibition curve with a large enough effect; inconclusive means small, poorly fitted or top-dose-only effect, or another doubt; inactive means no such curve, though single readings can be large or run the other way;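 further: the enzyme is Sfp with the accession as filed and its product quenches rhodamine fluorescence; potency means the concentration at half of the fitted maximal effect; 0% = enzyme reaction without inhibitor and -100% = no enzyme wells; top concentration of the series not given in the record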
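Fluorescence-quenching assay with 15 nM Sfp, 5 uM rhodamine-CoA and 12.5 uM BHQ-2-labelled ybbR peptide in pH 7.6 Hepes/MgCl2 buffer. Enzyme was pre-incubated with compound for 15 min at room temperature. Rate was taken from the 30-min fluorescence change (525/598 nm).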
ClpP mod = qHTS Assay for Activators of ClpP; 1.9% of 340,000 active; purified B. subtilis ClpP, FRET peptide cleavage, 20 min; Potency, µM (top dose mostly 57.5 µM), for the others: at the top dose activity change, negative = active; active = well fitted falling curve with a large enough effect; inconclusive = small, poorly fitted or top-dose-only effect; inactive = no such curve, though single readings can be large or run the other way; further: potency means the concentration at half of the fitted maximal effect; the source files actives as falling curves though it sought activators and does not explain the sign; nearly all actives have a fitted effect of over 65% in size; many hits overshoot -100%
Target sequence (P80244 whole entry, looked up): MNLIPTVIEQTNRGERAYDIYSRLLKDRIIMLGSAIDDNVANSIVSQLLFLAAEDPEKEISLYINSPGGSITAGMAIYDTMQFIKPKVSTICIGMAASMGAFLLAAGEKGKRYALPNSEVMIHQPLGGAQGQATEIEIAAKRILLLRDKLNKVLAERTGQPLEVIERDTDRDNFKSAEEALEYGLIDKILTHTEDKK
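ClpP 10 microg/mL final, pH 8 Tris/KCl buffer with BSA, glycerol, Tween-20; compound pinned in; FRET-FV substrate; RT 20 min; Ex320/Em430; ΔFRET vs ADEP 5.8 microM, DMSO, no enzyme.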
Menin-MLL FL inh = inhibitors of human menin-MLL interaction, wild-type MLL peptide. AID 1766. FP activity change, % at 61.4 µM. Fluorescence polarization, fluorescein-MLL peptide displacement from menin. 290,000 tested, under 10 active; inconclusive = falling polarisation curve, or a change in total fluorescence; inactive = total fluorescence flat and polarisation flat or rising; no compound was filed as active; the % refers to the polarisation; negative = inhibition;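 further: % of control where 0% means no effect; inhibitors lower the polarisation; unlabelled MLL peptide was the positive control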
TRPML1 blocker = inhibitors of human TRPML1 channel. Q9GZU1. TRPML1-inducible cells, Ca2+ dye fluorescence, FDSS; stronger effect = lower value; inhibition of EC80 agonist-evoked calcium signal. activity change, negative = inhibition, % (concentration not given with the values). 0.02% of 390,000 active; in the data active means activity change below about -50%; inconclusive means about -30% to -50%; inactive means above about -30%;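 further: stimulus is agonist 54-4 at its EC80 concentration; on the % scale 0 is the no-effect control and ±100 the full control effect; compound concentration not given in the record; the text of the record puts the active cut at -80%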
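TRPML1-DL cells, Tet-induced overnight (~16 h, 37 °C) at 1,500 cells/well, were loaded with Ca8 no-wash dye plus quencher for 45-90 min at room temperature. Compounds were pinned during FDSS kinetic reading; agonist 54-4 at EC80 (4 uM final) then added.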
TRPML1 ag = human mucolipin-1 channel agonism; Q9GZU1; TRPML1-expressing cells, Ca2+ dye fluorescence, FDSS; host cell line not named in the record; reference of the full effect not given here; activation, % (no concentration beside the values); 0.12% of 410,000 active; AID 624414; in the data active = activation above about 50%; inconclusive = about 30% to 50%; inactive = below about 30%; further: 0% is about no effect; the text of the record puts the active cut at 80%
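In this qHTS format, compounds were pin-transferred onto Ca8-dye-loaded TRPML1-DL cells induced with Tet overnight, and intracellular Ca2+ fluorescence was recorded kinetically for 110 s after a 10 s baseline. A subsequent 4uM final 54-4 (EC80) addition followed by a second 110 s read served as the antagonist phase.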
TRPV1 potentiator = potentiators of human vanilloid receptor 1 (TRPV1) | Q8NER1 | TRPV1-expressing cells, Fluo-8 calcium influx, capsaicin EC20 potentiation; host cell line not named in the record; control for the full effect not named in the record | potentiation, % at 8.33 µM | 0.02% of 320,000 active | AID 540277; active means potentiation above 80%; inconclusive means 30% to 80%; inactive means below 30%; further: 0% is about no effect
Target sequence (Q8NER1 whole entry, looked up): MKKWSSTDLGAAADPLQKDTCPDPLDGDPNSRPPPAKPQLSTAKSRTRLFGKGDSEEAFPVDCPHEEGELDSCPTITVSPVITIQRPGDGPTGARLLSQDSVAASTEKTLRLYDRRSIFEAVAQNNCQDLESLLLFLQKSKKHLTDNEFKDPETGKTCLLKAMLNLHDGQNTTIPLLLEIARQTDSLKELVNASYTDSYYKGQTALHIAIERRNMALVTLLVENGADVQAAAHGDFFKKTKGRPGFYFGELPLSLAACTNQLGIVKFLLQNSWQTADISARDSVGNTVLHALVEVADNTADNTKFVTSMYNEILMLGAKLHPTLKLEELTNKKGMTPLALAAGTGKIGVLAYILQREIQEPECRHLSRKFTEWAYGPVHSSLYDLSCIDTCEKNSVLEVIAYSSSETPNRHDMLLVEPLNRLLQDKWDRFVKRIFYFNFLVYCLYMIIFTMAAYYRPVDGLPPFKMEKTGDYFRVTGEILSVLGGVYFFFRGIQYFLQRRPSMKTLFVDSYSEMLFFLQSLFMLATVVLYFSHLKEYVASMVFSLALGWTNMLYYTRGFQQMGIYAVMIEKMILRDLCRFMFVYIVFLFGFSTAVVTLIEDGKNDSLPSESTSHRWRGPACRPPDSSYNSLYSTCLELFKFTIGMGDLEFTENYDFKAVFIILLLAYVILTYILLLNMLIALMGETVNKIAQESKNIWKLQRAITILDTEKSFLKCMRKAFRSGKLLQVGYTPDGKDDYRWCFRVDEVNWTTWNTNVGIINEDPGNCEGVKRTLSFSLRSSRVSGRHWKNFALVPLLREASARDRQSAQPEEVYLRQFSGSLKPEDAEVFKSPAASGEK
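Cells expressing TRPV1 were dye-loaded with Fluo-8 and read kinetically: 10 s baseline, 3 min after compound (agonist portion), then 2 min after EC20 capsaicin (allosteric enhancer portion). Calcium-bound dye fluorescence at 480/520 nm.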
* = called active by the depositor; ? = inconclusive; nt = not tested or not shown; & = joins results of further samples; [ ] = another dose, or the depositor's remark. Compounds as they come; about 4.4% have a hit in one of these screens.

SMILES | PINK1 modulator | Sfp inh | ClpP mod | Menin-MLL FL inh | TRPML1 blocker | TRPML1 ag | TRPV1 potentiator
O=C(CSc1cccc2cccnc12)N/N=C/c1ccncc1 | -2.4% | -8% | ? | -0.5 | -12 | -0.2 | 16
CCCCCCCCNc1nc(Cl)nc(NCc2ccco2)n1 | 2.4% | 13% | 0.7% | 3.4 | -2 | 0.1 | 3
Cc1nn(Cc2ccccc2Cl)c(C)c1N | 0.2% | 14% | -1.3% | -0.8 | -7 | 1.0 | -4
O=C(Nc1ccc(S(=O)(=O)N2CCOCC2)cc1)C1CC1 | 0.5% | 8% | nt | 2.7 | -4 | -0.4 | 30
CC(Sc1nc2c(c(=O)[nH]1)CCCC2)C(=O)Nc1cc(C(F)(F)F)ccc1Cl (stereo not drawn) | 1.8% | nt | -0.1% | nt | 25 | 2.6 | nt
O=C1CN(C(=O)COC(=O)c2cccc(Br)c2)c2ccccc2N1 | -0.1% | nt | -1.5% | nt | 5 | -0.2 | -4
C[C@H](CO)N1C[C@H](C)[C@@H](CN(C)Cc2ccc(C(=O)O)cc2)OCc2cnnn2CCCC1=O | 1.9% | nt | -0.7% | nt | -9 | -0.2 | nt
O=C(NCc1ccccc1)c1ccc(NS(=O)(=O)c2cccs2)cc1 | -1.6% | nt | -1.5% | nt | 5 | 0.0 | 8
CCc1noc(C)c1C(=O)NCCN1C(=O)S/C(=C\c2ccccc2F)C1=O | 1.7% | nt | 0.1% | nt | -6 | -0.9 | nt
Cc1cccc(Nc2nc(-c3ccc(O)cc3O)cs2)n1 | 0.1% | ? | nt | -0.5 | 9 | 1.0 | -4
CN1CCN(C(=O)C2CCCN(S(=O)(=O)c3ccc(F)cc3)C2)CC1 (stereo not drawn) | -0.2% | ? | nt | nt | 8 | -0.8 | 9
COc1cccc(CC(=O)Nc2nc(-c3cc(OC)ccc3OC)cs2)c1 | 6.9% | 29% | nt | 0.5 | 5 | 0.3 | -10
COc1ccc(NC(=O)N(Cc2cc3cc(OC)ccc3[nH]c2=O)CC2CCCO2)cc1 (stereo not drawn) | 1.5% | ? | ? | -0.3 | -4 | -0.9 | 17
CC(=O)Nc1ccc(S(=O)(=O)Nc2ccc(S(=O)(=O)N3CCCC3)cc2)cc1 | 4.5%[38.3 µM] | -13% | 0.4% | 0.2 | 7 | 1.3 | 16
CN(C)c1cccc(C(=O)NNC(=O)/C=C/c2cccs2)c1 | 1.6% | nt | -1.4% | nt | -6 | -0.7 | -9
COC(=O)c1cccc(Nc2nc(-c3ccncc3)nc3ccccc23)c1 | 3.9% | -2% | nt | -12 | -14 | -1.0 | -5
Cc1ccc(C(=O)NCC(=O)NCc2cc(=O)n(C)c(=O)n2C)cc1 | -1.4% | 8% | -2.9% | 2.7 | 29 | 0.3 | 8
COc1cc(OC)cc(C(=O)N[C@H](C(=O)NC2=NCCS2)C(C)C)c1 | -0.6% | nt | -2.0% | nt | 3 | 2.4 | nt
COc1ccc(NC(=O)COC(=O)Cc2c(F)cccc2Cl)cc1OC | 0.5% | 13% | nt | -3.0 | 9 | 1.1 | -3
COc1ccc2occ(C(=O)c3ccc(N)cc3)c2c1 | -2.5% | 0% | -0.3% | 3.8 | 6 | 2.6 | -10
CCOc1ccc(Cc2nnc(SCC(N)=O)n2C)cc1 | 7.4%[38.3 µM] | 17% | 0.7% | 1.2 | -14 | 0.1 | 4
Nn1c(SCC(=O)Nc2ccc3c(c2)OCO3)nnc1-c1ccc(Cl)cc1 | 2.9% | -1% | 1.7% | -0.5 | -4 | 1.6 | -7
O=C(O)c1csc(-c2cccc(Cl)c2)n1 | 1.4% | -15% | -3.3% | 1.4 | nt | nt | -5
COc1ccccc1NC(=O)CSc1nnc(Cc2cc(=O)[nH]c(=O)[nH]2)n1-c1ccccc1 | 1.4% | 7% | 1.9% | -0.5 | -2 | -1.0 | 11
COc1ccc(Cc2nc3ccc(C(=O)NCCc4cccc(C)n4)cc3o2)cc1 | 0.9% | 14% | -0.4% | nt | 1 | 0.8 | 2

(continued)
SMILES | PINK1 modulator | Sfp inh | ClpP mod | Menin-MLL FL inh | TRPML1 blocker | TRPML1 ag | TRPV1 potentiator
CN1[C@@H]2CC[C@H]1CC(OC(=O)c1c[nH]c3ccccc13)C2 (stereo partly drawn) | -0.7% | 3% | -1.3% | -1.3 | -2 | 0.4 | nt
CC(=O)Nc1cccc(NC(=O)CSc2nccn2Cc2ccco2)c1 | 2.7%&6.0% | 12% | 6.9%&1.3% | nt | 5&-2 | 0.7&0.7 | 5
CCOc1ccc(C2C(C#N)=C(N)Oc3cc(O)ccc32)cc1OCC (stereo not drawn) | 1.0% | 8% | -0.4% | ? | 2 | 1.8 | ?
Cc1ccc(Cn2ncc(Cl)c(Cl)c2=O)cc1 | -2.8% | 2% | 40% | 1.7 | 5 | -1.4 | -24
NCCCCCc1nnc(SC/C=C/c2ccccc2)o1 | -2.0% | 1% | -0.1% | 0.3 | -5 | -0.2 | -31
O=[N+]([O-])c1ccc(SCc2c(F)cccc2Cl)nc1 | 5.5% | -21% | nt | -2.6 | -13 | 0.7 | -3
COc1ccc(NC(=O)c2sc(N)nc2-c2ccccc2)cc1 | -1.0% | 12% | -9.7% | -2.8 | 3 | 1.5 | 5
O=C(COc1cccc(F)c1)Oc1ccc(C(=O)c2ccccc2)cc1 | 4.4% | -9% | -2.0% | nt | -10 | 1.7 | 12
O=C(Nc1ccc(Cl)cc1)N1CCN(c2ccc3nnc(-c4ccc(F)cc4)n3n2)CC1 | 0.1%&-0.2% | -10% | -14%&-28% | 4.4 | 37&28 | 2.5&3.2 | 2
Cc1ccc(Cl)cc1N(CC(=O)N1CCCCCC1)S(C)(=O)=O | -0.4% | 9% | 0.9% | 5.2 | -1 | -1.2 | -5
COc1cc(C2c3c(-c4cc(C)cc(C)c4O)n[nH]c3C(=O)N2CCCO)cc(OC)c1OC (stereo not drawn) | 1.1% | 0% | -1.4% | -0.6 | 14 | 0.0 | 12
O=C(C1CC1)N1N=C(c2ccc(F)cc2)CC1(O)C(F)(F)F (stereo not drawn) | 5.4% | -5% | 0.5% | 0.4 | 1 | 0.1 | 6
Cn1c(Cn2c(=O)sc3ccccc32)nnc1SCC(=O)NCC1CCCO1 (stereo not drawn) | 0.1% | 17% | -3.4% | 0.9 | 13 | 0.7 | 0
O=C(CN1CCOCC1)NCc1ccccc1Cl | -2.4% | 13% | nt | nt | -2 | 1.3 | -1
C=CCN(CC=C)Cc1cc(=O)oc2cc(C)c(C)cc12 | 7.2% | nt | -9.6% | nt | 55 | 2.7 | nt
CCOc1ccccc1NC(=O)c1ccc2ccccc2c1 | 0.9% | -12% | nt | 0.4 | 52 | 0.3 | -12
O=C(CN1C(=O)c2cccc3cccc1c23)N1CCN(c2cccc(Cl)c2)CC1 | ? | 13% | -2.1% | 2.0 | 46 | -0.8 | 11
CCOc1ccc(-c2nc(Cn3c(=O)cc(-c4ccccc4)c4c(C)nn(C)c43)c(C)o2)cc1 | -0.6% | nt | -6.0% | nt | 7 | 1.2 | nt
CCCCNC(=O)Nc1ccccc1C(=O)Nc1ccc(OC)cc1 | 12% | 5% | -6.7% | 0.8 | 40 | 0.9 | -2
CC(C)Oc1ccc(CNC(=O)c2ccc(Cn3c(=O)c4cccn4c4cccnc43)cc2)cc1 | 0.2% | nt | 9.0% | nt | 5 | 0.3 | nt
CCCc1cc(=O)[nH]c(SCC(=O)NN(c2ccccc2)c2ccccc2)n1 | -1.6% | 16% | nt | 1.2 | 1 | -0.3 | 23
O=C(CN1CCN(C(=O)c2ccco2)CC1)Nc1ccc(Cl)c(C(F)(F)F)c1 | -0.4% | -7% | 1.0% | 5.5 | -12 | -0.7 | -12
CCOP(=O)(c1ccc(N(C)C)cc1)C(O)c1ccc(Cl)cc1 (stereo not drawn) | -2.5%[38.3 µM] | 11% | -0.7% | 2.1 | -2 | -0.2 | 2
Clc1ccc2oc(-c3cccnc3)nc2c1 | -3.4% | 18% | 25µM* | 4.7 | 7 | 2.0 | 0
O=C(O)c1ccc(-c2nc(-c3cccc(C(F)(F)F)c3)cs2)cc1 | 2.8% | -9% | 3.5% | 2.9 | -1 | 0.0 | 20

Some entries already given, limited to Sfp inh and TRPML1 ag:
| Structure | Sfp inh | TRPML1 ag |
| --- | --- | --- |
| CN(C)c1cccc(C(=O)NNC(=O)/C=C/c2cccs2)c1 | nt | -0.7 |
| COC(=O)c1cccc(Nc2nc(-c3ccncc3)nc3ccccc23)c1 | -2% | -1.0 |

The list continues.
SMILES | PINK1 modulator | Sfp inh | ClpP mod | Menin-MLL FL inh | TRPML1 blocker | TRPML1 ag | TRPV1 potentiator
O=C1N=C(N2CCOCC2)S/C1=C/c1cc2c(cc1[N+](=O)[O-])OCO2 | 2.1% | 7% | nt | 7.2 | 0 | -0.2 | nt
COC(=O)c1ccc(C(=O)OC)c(NC(=O)COC(=O)C2CCCCC2)c1 | -1.1% | ? | ? | 0.8 | 77 | 1.3 | 3
COc1ccc(OC)c(C(=O)N2CCCC(Nc3ccc(F)cc3)C2)c1 (stereo not drawn) | 2.9% | 21% | -2.3% | 0.4 | 19 | -0.5 | -12
Cc1ccc(S(=O)(=O)Nc2cc(C(F)(F)F)ccc2N2CCOCC2)cc1C | 0.1% | 13% | -0.3% | 0.7 | -11 | 85* | -16
Cc1nc2ccccc2n1CC(=O)OCC(=O)NCCc1ccccc1 | 1.1% | -7% | 1.9% | -0.2 | 7 | -0.6 | 12
COc1ccc(-c2ccc(CCC(=O)O)n2NC(=O)c2ccc(C(C)(C)C)cc2)cc1 | 2.1% | ? | nt | 5.5 | 11 | 0.2 | 19
CN(C)c1ncnc(N(C)C)c1[N+](=O)[O-] | -1.9% | -2% | 0.7% | -0.4 | -8 | -0.7 | 23
COc1ccc(C2=NN3C(C2)c2ccccc2OC3c2cccs2)cc1 (stereo not drawn) | 1.5% | 10% | 0.0% | 8.2 | 3 | 0.4 | -12
CC(C)CCN(C(=O)COc1ccc(C#N)cc1)c1c(N)n(Cc2ccccc2)c(=O)[nH]c1=O | nt | 20% | nt | -0.5 | nt | nt | 1
O=C(NCc1ccccc1)NC1CCCCC1 | nt | -12% | -17% | 2.0 | 15 | 0.3 | -35

From PubChem BioAssay
